# Bioassay records deposited in PubChem BioAssay by National Center for Advancing Translational Sciences (NCATS).
# 2A Renilla: FMDV 2A StopGo reporter, Renilla signal. HEK cells with a luciferase reporter of 2A StopGo recoding. Potency, µM (highest dose often 57.5 µM), without a hit: at the top dose signal change, negative = less light. 0.32% of 120,000 active; active means well fitted falling curve with a large enough effect; inconclusive means small, poorly fitted or top-dose-only effect; inactive means no such curve, though single readings can be large or run the other way; note: nearly all actives have a fitted effect of over 55% in size; overnight with compound
# 2A firefly: lowers the firefly signal of an FMDV 2A StopGo reporter. HEK cells with a luciferase reporter of 2A StopGo recoding. 0.23% of 120,000 active. Potency, µM (doses to about 57.5 µM), inactives show top-dose signal change, negative = less light. AID 1745856; active = well fitted falling curve with a large enough effect; inconclusive = small, poorly fitted or top-dose-only effect; inactive = no such curve, though single readings can be large or run the other way; note: nearly all actives have a fitted effect of over 60% in size; overnight with compound
# Numbers without * were called inactive; ? = inconclusive; & = joins results of further samples; [ ] = another dose, or the depositor's remark. % is set by controls: 0 for no effect and ±100 for the full control effect; potency is the fitted concentration of half-maximal effect. Some of the compounds tested (hit frequency here may not be typical).
molecule	2A firefly	2A Renilla
O=C(CSc1nc2c(c(=O)[nH]1)CN(Cc1ccc(F)cc1)CC2)Nc1ccccc1Cl	-1%	-3%
CCCCCn1nc(C(=O)NCc2ccccc2F)c2ccccc2c1=O	-6%	102%[activator]
CC(NC(=O)C1CCN(S(=O)(=O)c2ccccc2)CC1)c1ccccc1 (stereo unspecified)	-12%	-3%
O=C(Nc1cc(Cl)ccc1Cl)C1(c2cccs2)CCOCC1	-6%	18%
COc1ccc(OCCOC(=O)c2ccc3c(c2)NC(=O)CS3)cc1	0%	-4%
CCSc1nc2c(c(=O)[nH]c(=O)n2C)n1CCCc1ccccc1	6%	-8%
Cc1nn(CCC(=O)NCc2ccc(Cl)cc2)c(=O)c2nn(-c3ccccc3)c(C)c12	8%	1%
COc1ccc(N2Cc3cccc(C(=O)NCc4cccc(Cl)c4)c3C2=O)cc1	12%	33%[activator]
O=C(Cn1cc(S(=O)(=O)N2CCCC2)c(S(=O)(=O)N2CCCC2)c1)Nc1ccccc1	-10%	17%
COC(=O)c1cc2oc3ccccc3c2n1CC(=O)Nc1ccc(Cl)cc1F	106%[activator]	8%
N#CC1=C(N)N2CCc3cc4c(cc3C2=CC12C(=O)Nc1ccccc12)OCCCO4 (stereo unspecified)	1%	90%[activator]
Clc1cccc(-c2ccc(CNc3ncn[nH]3)o2)c1	25%	-15%
COc1cccc(C(=O)N2CCC(c3nc4ccccc4s3)CC2)c1	-8%	-4%
CCSc1ncc(Cl)c(C(=O)N(Cc2ccc(C(C)(C)C)cc2)C2CCS(=O)(=O)C2)n1 (stereo unspecified)	5%	5%
Cc1ccc2nc(C)c(C(=O)NC(C)c3ccccc3)cc2c1 (stereo unspecified)	-11%	-26%
CCc1ccc(CSc2nc(-c3ccccc3F)nc3c2Cc2c(CO)cnc(C)c2O3)cc1	-9%	-2%
COc1ccc(C)cc1NC(=O)c1nc2ccccc2nc1N1CCCCC1	-7%	3%
Cc1ccc(CNC(=O)CCc2c[nH]c3ccccc23)s1	13%	24%
Cc1ccc(C(NC(c2ccccc2)c2ccccc2)C(=O)O)cc1 (stereo unspecified)	14%	31%[activator]
COc1cc(C(=O)Nc2cccc(SC)c2)cc(Br)c1O	0%	1%
Cc1cccc(OCC(=O)N(Cc2sccc2C)C2CCS(=O)(=O)C2)c1 (stereo unspecified)	17%	2%
O=C1OC2(c3ccccc31)c1cc(I)c(O)c(I)c1Oc1c2cc(I)c(O)c1I	?	-2%
C(#Cc1ccccc1)CNC12CC3CC(CC(C3)C1)C2	9%	5%
COc1cccc(CNCCSc2nnnn2C)c1OCc1ccccc1	18%	10%
CC(=O)Nc1ccc(-c2csc(NC3CC3)n2)cc1	307%[activator]	21%
N#Cc1ccc(CN(Cc2ccccc2)Cc2ccco2)cc1	5%	11%
N#Cc1c(C(F)(F)F)cc(-c2cccs2)nc1SCC(=O)Nc1ccc(F)cc1	-8%	-7%
Cc1cccc(-c2nnc(SCC(=O)Nc3nncs3)n2C)c1	-4%	-11%
Cc1cccc(/C=N/NC(=O)c2ccc(C(C)(C)C)cc2)c1	222%[activator]	22%
CC1CCCN(C(=O)c2cc3ccc(C(C)C)cc3[nH]2)C1 (stereo unspecified)	214%[activator]	193%[activator]

# Complete entries, looked up by structure. Order of values: 2A firefly	2A Renilla
# N#Cc1ccc(CN(Cc2ccccc2)Cc2ccco2)cc1 is listed with 5%	11%
# Cc1ccc(CNC(=O)CCc2c[nH]c3ccccc23)s1 is listed with 13%	24%
# CCSc1ncc(Cl)c(C(=O)N(Cc2ccc(C(C)(C)C)cc2)C2CCS(=O)(=O)C2)n1 (stereo unspecified) is listed with 5%	5%
# Cc1ccc2nc(C)c(C(=O)NC(C)c3ccccc3)cc2c1 (stereo unspecified) is listed with -11%	-26%
# O=C(CSc1nc2c(c(=O)[nH]1)CN(Cc1ccc(F)cc1)CC2)Nc1ccccc1Cl is listed with -1%	-3%

# Three structures from above, arranged by length of the SMILES, high to low.
molecule	2A firefly	2A Renilla
O=C(CSc1nc2c(c(=O)[nH]1)CN(Cc1ccc(F)cc1)CC2)Nc1ccccc1Cl	-1%	-3%
COc1ccc(N2Cc3cccc(C(=O)NCc4cccc(Cl)c4)c3C2=O)cc1	12%	33%[activator]
COc1ccc(OCCOC(=O)c2ccc3c(c2)NC(=O)CS3)cc1	0%	-4%

# Next section.
molecule	2A firefly	2A Renilla
CCCCN(CC)CCNC(=O)CN1C(=O)COc2ccc(S(=O)(=O)N3CCOCC3)cc21	-23%	-14%
COc1cccc(NC(=O)CN2CCCN(S(=O)(=O)c3ccc(Br)cc3)CC2)c1	-10%	-12%
O=C(c1cccc2ncccc12)N1CCN(CCc2ccccc2)CC1	23%	0%
O=C(NCc1ccccc1F)c1cc2ccccn2n1	267%[activator]	67%[activator]
O=C(NCc1ccccc1Cl)C1CCCN(c2cnc3ccccc3n2)C1 (stereo unspecified)	13%	-3%
CC(C)c1ccc(C2C(C#N)=C(N)Oc3c2oc(CO)cc3=O)cc1 (stereo unspecified)	0%	28%
O=C(N/N=C/c1cc(Br)cs1)c1cccc(Cl)c1	176%[activator]	33%[activator]
Cc1ccc(C)c(C(=O)N2CC=C(c3c[nH]c4ccccc34)CC2)c1	15%	1%
C[C@@H](C(=O)N1CCN(c2ccccc2)CC1)n1cnc2ccccc2c1=O	9%	4%
COC(=O)C(C#N)c1nc2ccccc2nc1Cl (stereo unspecified)	17%	-3%
COCCNC(=O)C(C)OC(=O)c1cc2ccccc2[nH]1 (stereo unspecified)	?	?
COc1ccc(-c2csc(Nc3ccccc3OC)n2)cc1	204%[activator]	8%
COc1ccccc1CNC(=O)Cc1c(C)c2cc3c(C)coc3c(C)c2oc1=O	-16%	3%
CCc1ccc2oc(=O)cc(-c3cc4cccc(OC)c4o3)c2c1	5%	0%
CC(C)C(=O)Nc1ccc(C(N)=O)c(Cl)c1	-5%	8%
COc1ccc(CC(=O)OCCCC(=O)c2ccc(F)cc2)cc1	2%	-1%
COCCNC(=O)CN1C(=O)COc2ccc(S(=O)(=O)N3CCCCCC3)cc21	22%	17%
COc1ccc(C(CC(=O)NCc2ccccc2Cl)N2Cc3ccccc3C2=O)cc1OC (stereo unspecified)	-19%	26%
CCCCN(C(=S)Nc1cc(F)cc(F)c1)C1CCN(C(C)=O)CC1	0%	15%
COc1ccc(Cn2cc(C(=O)c3ccc(Cl)cc3)c(=O)c3cc4c(cc32)OCO4)cc1	13%	62%[activator]
O=c1cc(C(F)(F)F)c2ccc(OS(=O)(=O)c3cccc(C(F)(F)F)c3)cc2o1	6%	6%
COc1ccc(-c2oc3ncn4nc(COc5c(C)cccc5C)nc4c3c2-c2ccc(OC)cc2)cc1	-3%	-4%
COc1cccc(NC(=O)CN(Cc2ccccc2)S(=O)(=O)c2ccc3nc(C)sc3c2)c1	-25%	83%[activator]
Cc1nn(C)c(C)c1CNC(=O)Nc1ccccc1	0%	-8%
CN(C)C(CNc1oc(-c2cccc3ccccc23)nc1C#N)c1cccs1 (stereo unspecified)	11%	-4%
CCc1nonc1NC(=O)c1ccc(OCC(C)C)cc1	215%[activator]	8%
O=C(Cc1c[nH]c2ccccc12)N1CCC(C(=O)N2CCCCCC2)CC1	-7%	-8%
Cc1ccsc1C(=O)N(Cc1ccco1)C1CC1	-2%	-4%
C=CCOc1cccc(/C=N/NC(=O)C(=O)NCCCOC)c1	0%	21%
O=C(NCC(c1ccc(Cl)cc1)N1CCCCC1)c1ccccc1 (stereo unspecified)	-19%	6%

molecule	2A firefly	2A Renilla
O=C(NCc1ccc(F)cc1)N1CCN(C(=O)c2ccccc2)CC1	-6%	1%
O=C(c1ccc2c(c1)N(Cc1ccccc1)C(=O)c1ccccc1S2(=O)=O)N1CCN(c2ccccc2)CC1	10%	-8%
CCN1CCN(Cc2cc(=O)oc3cc(-c4ccccc4)c(O)cc23)CC1	5%	12%
CC(C)Cn1c(-c2ccc(O)cc2)nc2c1c(=O)[nH]c(=O)n2Cc1ccccc1	-5%	9%
CCOC(=O)CSc1nc2sc3c(c2c(=O)n1-c1ccccc1)CCC(C(C)(C)C)C3 (stereo unspecified)	-14%	-16%
Cc1ccc(-n2ncc(C(=O)N3CCN(c4cccc(C)c4C)CC3)c2C2CCNCC2)c(C)c1	-7%	-2%
c1ccc(Nc2ncnc3c2oc2ccccc23)cc1	194%[activator]	4%
CCOC(=O)c1cc2c(=O)n3ccccc3nc2n(CC2CCCO2)c1=NC(=O)c1ccccc1Br (stereo unspecified)	-17%	19%
O=C(c1noc2c1CCCCC2)N1CCN(c2ccc(Cl)cc2)CC1	?	-20%
Cc1cc(NC(=O)NCc2nc(-c3ccccc3C)oc2C)ccc1Cl	30%[activator]	1%
CC(C)COc1ccc(C(=O)Nc2cccc3ncccc23)cc1	?	?
COc1ccc(C(=O)Nc2ccc(Nc3nc(C)cc(Nc4ccc(C)cc4)n3)cc2)cc1OC	?	?
Cn1c(=O)c2c(ncn2CCC(=O)Nc2ccc(Cl)c(Cl)c2)n(C)c1=O	9%	12%
CCn1c(SCC(=O)c2ccc(Cl)s2)nnc1-c1ccc(OC)cc1	15%	76%[activator]
Cn1c(=O)c2c(nc(NCCc3ccccc3)n2CC(O)CO)n(C)c1=O (stereo unspecified)	2%	-7%
CCC(C)NC(=O)Nc1ccc(-c2noc(-c3ccco3)n2)cc1 (stereo unspecified)	3%	1%
O=C(CCc1ncc(-c2ccccc2Cl)o1)NCc1ccc(Cl)cc1Cl	0%	21%
COc1cccc(N2CCN(C(=O)c3cccn3-c3nnc(N4CCCCC4)s3)CC2)c1	-15%	-6%
COCCn1cnc2c1c(=O)n(CC(=O)Nc1c(C)cccc1C)c(=O)n2CC(C)C	-3%	-8%
O=c1c(C(F)(F)F)cccn1Cc1coc(-c2cccc(F)c2)n1	106%[activator]	15%
COc1cc(OC)c(N(C)C(=O)c2nn(C)c3c2CSc2ccccc2-3)cc1Cl	4%	0%
CC(C)(C)C(=O)[C@@H]1[C@@H](C(=O)c2ccccc2)[C@@]2(C(=O)Nc3ccccc32)[C@H]2c3ccccc3C=CN12	14%	221%[activator]
Cc1ccc(CS(=O)Cc2cccc(Cl)c2)cc1 (stereo unspecified)	17%	37%[activator]
C/C(=N/O)C1(C)N(O)C(C)(C)C(c2ccc(C)cc2)=[N+]1[O-] (stereo unspecified)	19%	8%
O=C(COC(=O)Cc1n[nH]c(=O)c2ccccc12)NC(=O)NC1CCCCC1	7%	5%
CC(=O)c1cccc(NC(=O)Nc2sc3nc4n(c(=O)c3c2C)CCC(C)CC4)c1 (stereo unspecified)	-13%	-12%
Cc1ccc2cccc(NC(=O)c3cccc(OC(C)C)c3)c2n1	19%	3%
COc1ccc(/C=C/C(=O)/C=C/c2ccc(OC)cc2)cc1	17%	-6%
Cc1ccc2[nH]c(=O)c(CN(CC3CCCO3)S(=O)(=O)c3ccccc3)cc2c1 (stereo unspecified)	?	16%
CC1(C)CC(CC(=O)N2CCCCC2)(c2ccccc2)CCO1 (stereo unspecified)	4%	-4%

molecule	2A firefly	2A Renilla
CCOc1ccc(NC(=O)C2=C(C)C(=O)OC23CCC(C)CC3)cc1 (stereo unspecified)	0%	-1%
COc1ccc(-c2nc(CCNc3ncccc3C#N)co2)cc1	116%[activator]	-9%
CC(=O)N1CCC2(CC1)CC(=O)c1ccc(OCC(=O)NC3Cc4ccccc4C3)cc1O2	10%	0%
Cc1ccc(Nc2cc(C)nc3nncn23)c(C)c1	-10%	-12%
O=C(CSc1nnc(-c2ccc(Br)cc2)n1C1CCCCC1)N1CCCC1	37%[activator]	-7%
Cc1ccc(/C=C/c2onc(C)c2S(=O)(=O)N2CCC(C(=O)Nc3cc(F)ccc3F)CC2)cc1	-5%	-8%
CCCCCCCNC(=O)CCC(=O)NCCCC	3%	-1%
O=C(CSc1n[nH]c(-c2ccccc2)n1)N1CCCC1c1ccc2c(c1)OCCO2 (stereo unspecified)	?	?
Cc1ccc2nc(-c3ccc(C)c(NC(=O)c4cc([N+](=O)[O-])ccc4N4CCOCC4)c3)oc2c1	100%[activator]	-4%
O=C(COc1ccccc1)Nc1ccc(NC(=O)C2CC2)cc1C(F)(F)F	-8%	-5%
NC(=O)c1cccc(C(=O)NC2CCCc3ccccc32)c1 (stereo unspecified)	22%	71%[activator]
NC(N)=NC(N)=Nc1ccc(Cl)c(Cl)c1	0%&20%	-7%[1.06 µM]
Cc1cnc(C(=O)Oc2ccc(Cl)cc2)cn1	-7%	0%
O=C(CCn1nc(-c2ccc(Cl)cc2)c2ccccc2c1=O)Nc1ccc(F)cc1	0%	23%
O=C(Nc1ccc2oc(-c3ccccc3F)nc2c1)c1ccc2c(c1)OCCO2	?	?
O=C(Cc1ccccc1)Nc1sc2c(c1C(=O)Nc1ccccc1Cl)CCCCC2	-20%	-5%
Cc1ccc(CC(=O)NC2CCC(C)CC2)cc1 (stereo unspecified)	0%	11%
CCc1ccc(-c2csc(/C(C#N)=C/Nc3c(C)cc(C)cc3C)n2)cc1	0%	41%[activator]
CCN1CCN(C(c2ccc(Cl)cc2)c2c(O)cc(C)n(CCOC)c2=O)CC1 (stereo unspecified)	-22%	9%
CCc1nnsc1C(=O)N(C)Cc1cccc(Cl)c1Cl	3%	12%
CCCn1nc(C(=O)Nc2ncc(Cc3ccc(Br)cc3)s2)ccc1=O	?	?
CC1CCN(C(=O)c2cccc(NC(=O)c3nsc4ccccc34)c2)CC1	93%[activator]	31%[activator]
